BasE inh = inhibitors of Acinetobacter baumannii siderophore enzyme BasE; AID 485350; inhibition, % (concentration not given with the values); purified BasE, fluorescence polarization binding displacement; actives 0.1% (n = 84,000);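 active means both replicates above 25% with normal brightness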;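 further: 0% = negative plate control signal and 100% = positive plate control signal; stock transfer was 100 nL into about 30 µL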
LANA-nucl inh = inhibitors of KSHV LANA binding to nucleosomes. actives 0.3% (n = 51,000). z-score (test concentration not listed). FITC-LANA1-23 / chicken nucleosome fluorescence polarization; stronger effect = lower value. AID 720717;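 active means both repeat wells score below -2 in polarization z-score versus plate sample wells, excluding overly bright wells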;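 further: 100 nL library stock added to about 30 µL; numbers are from one replicate; some results filed as inactive read as strong as hits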
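System – purified chicken nucleosomes with FITC-labelled LANA N-terminal peptide (1-23) · Amount – 240 nM purified chicken nucleosomes (480 nM peptide binding sites), final · Also added – 50 nM FITC-LANA1-23 probe · Medium – TEN-BT buffer, pH 7.5 · Incubation – compound with peptide–nucleosome mix 10–45 min at room temperature · Detection – fluorescence polarization, ex 480 nm, em 535 nm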
The depositor's hits bear a star; · = no result given; & = joins results of further samples. A portion of the library; rates above refer to the full screens.

Every second line gives: BasE inh	LANA-nucl inh
> Cc1nc2ccn(Cc3cccnc3)c(=O)c2cc1C(=O)Nc1ccccc1
    -1.7	-1.2
> CC(C)Sc1n[nH]c(=S)n1N
    2.2	·
> CCn1c(SCC(=O)NC(C)(C#N)C(C)C)nnc1-c1ccccc1 (configuration not stated)
    -1.7	·
> COc1ccc(/C(C)=N/NC(=O)Cc2c(C)nc(C)[nH]c2=O)cc1
    -0.3	-0.53
> CCCOC(=O)Nc1nnc(CCC)s1
    0.3	-0.59
> CCOC(=O)c1c(C)[nH]c(C)c1C(=O)COC(=O)CSc1nnc(-c2ccco2)n1CC
    0.3	·
> CC(=O)NC1C(Oc2ccccc2)OC(COC(C)=O)C(OC(C)=O)C1OC(C)=O (configuration not stated)
    -1.5	·
> CCOc1ccccc1NC(=O)c1ccccc1C
    0.0	0.57
> CCCCOc1ccc(NC(=O)CCSc2nccn2C)cc1
    -0.1	0.2
> C1=C(C(c2nnnn2C2CCCCC2)N2CCCCC2)COc2ccccc21 (configuration not stated)
    -1.2	-0.055
> CC(C)(C)c1cc(/C=C(\C#N)C(N)=S)cc(C(C)(C)C)c1O
    -17	9.8
> C(=N\NC1=Nc2cccc3cccc1c23)/c1ccccn1
    0.9	·
> O=C(/C=C/c1ccccc1)N1CCCC1=O
    1.0	1.3
> CC(=O)N1CCN(S(=O)(=O)c2ccc(C)cc2)C1c1ccc(N(C)C)cc1 (configuration not stated)
    -0.3	-0.19
> Cc1cc(OCCN2CCCC2)cc(C)c1Cl
    -1.1	·
> COc1ccc(N=Cc2c(O)[nH]c(=S)[nH]c2=O)cc1
    14	-1.1
> N#CCCSc1nc2ccccc2n1CCc1ccccc1
    0.6	·
> CCOC(=O)c1c(-c2cccs2)csc1NC(=O)C(F)(F)F
    4.8	0.066
> CCOC(=O)c1cc2c(N(C)C)nccc2nc1C(F)(F)F
    2.1	-0.92
> CCCCn1nc(C)c(/C=N/NC(=O)CN2CCCc3ccccc32)c1Cl
    2.4	·
> Cc1[nH]c(=S)c(C#N)c(-c2ccco2)c1C(=O)O
    -2.4	·
> COc1ccc(OCCN(C)C(=O)/C=C/c2nc3ccccc3o2)cc1
    0.8	·
> O=C(/C=[N+](\[O-])C1CCC/C1=N\O)c1ccccc1 (configuration not stated)
    1.3	·
> COC(=O)c1ccc(COC(=O)c2ccc3c(c2)OCO3)o1
    0.3	·
> C[C@@]12CCC3[C@@](CC[C@@H]4[C@](C)(C(=O)O)CCC[C@@]34C)(C[C@H]1O)C2 (some centres not stated)
    0.3	-0.1
> O=C(O)c1cccnc1N1CCOCC1
    0.4	0.065
> CCCN(CCC)C1=C(C(=O)c2ccccc2)N(C)S(=O)(=O)c2ccccc21
    -1.3	·
> COc1ccc(-c2noc(COc3cc(C)c(Cl)c(C)c3)n2)cc1OC
    -1.0	0.37
> C=C(C)c1cccc(C(C)(C)NC(=O)NC2CC2)c1
    1.8	·
> O=S(=O)(/N=C(/Nc1cccc(O)c1)c1ccccc1)c1ccccc1
    -8.0	1.3
> O=C(CSc1nc2ccccc2[nH]1)c1cccs1
    2.4	0.6
> CC(C)(C)Sc1cc(C(=O)O)sc1C(=O)O
    0.3	-1.5
> COc1ccc(CCN2C(=O)c3ccccc3NC2c2c(C)nn(C)c2C)cc1 (configuration not stated)
    -0.1	·
> NCCCOCC1CCCO1 (configuration not stated)
    0.3	·
> CCCCCC(=O)NC1(CCC)CCCC1
    2.2	0.17
> N#C/C(=C\c1ccc(N2CCCC2)o1)c1ccccc1
    -36	-5.4*
> Cc1nn(-c2ccccc2)c2[nH]c(=O)c(CNc3ccccc3)cc12
    1.3	-1.1
> O=C(CSCc1cc(=O)n2c3c(sc2n1)CCCC3)NCc1ccc2c(c1)OCO2
    -5.7	·
> CC1CC(C)CN(c2cc(NCCO)c3c4c(onc24)-c2ccccc2C3=O)C1 (configuration not stated)
    -33	-1.3
> Cc1nn(-c2ccccc2)c2sc(C(=O)NCCN3C(=O)S/C(=C\c4cccnc4)C3=O)cc12
    -0.2	·
> Cc1ccc(N=Cc2c(O)c3ccccc3n(C)c2=O)cc1
    1.8	·
> C=CCN(CC=C)C(=O)c1csc(Nc2ccc(OC)cc2)n1
    2.1	-1.1
> C[C@@H]1CC[C@H]2[C@H](C)[C@H]3CC[C@@]4(O)C5C[C@@H](O)[C@H]6C[C@H](O)CC[C@]6(C)[C@H]5C[C@H]4[C@@H]3CN2C1 (some centres not stated)
    -1.9	0.95
> COc1ccccc1C(=O)NC1=NN(c2ccc3ccccc3c2)CC1
    -0.3	·
> Cc1cc(C(=O)CSc2nc(N)nc(N)n2)c(C)n1CCC1=CCCCC1
    -0.3	·
> Fc1ccc2nc(NCc3ccccc3)sc2c1
    -1.3	·
> O=C(O)CC1(Cc2nc3ccccc3s2)CCCC1
    2.4	·
> O=C(O)c1ccc(Nc2cnn(C34CC5CC(CC(C5)C3)C4)c(=O)c2Cl)cc1
    3.0	-0.002
> Nc1nnc(SCC(=O)NCc2ccco2)n1CC(=O)NCc1ccco1
    0.0	-0.62
> Nc1ncc(Cc2ccccc2)s1
    1.3	0.43
> O=C(O)C(CO)NS(=O)(=O)c1ccc(F)cc1 (configuration not stated)
    0.5	0.41
> Fc1ccc(CN2CCCN(Cc3ccc(F)cc3)C2c2cccnc2)cc1
    ·	-1.4
> CCOC(=O)C1=C(O)/C(=C\c2sccc2C)N=C1C
    1.3	-0.55
> O=c1[nH]c2cc(C(F)(F)F)ccc2n1-c1cc(C(F)(F)F)ccc1O
    -0.9	0.033
> O=C(Nc1cscc1S(=O)(=O)c1ccccc1)c1ccccc1Cl
    -2.3	·
> CCc1ccc2[nH]c(C(=O)NC(C)COC)cc2c1 (configuration not stated)
    -0.2	·
> COc1ccc(CCNC(=O)Cc2nn(C)c(=O)c3ccccc23)cc1OC
    -1.3	-0.39
> CCOC(=O)c1ccc(N2C(=O)CS(=O)(=O)CC2=O)cc1
    -0.2	-0.56
> O=C1C2C(C(=O)N1/N=C/c1ccccc1)C1C=CC2C12CC2 (configuration not stated)
    1.8	0.3
> CC(C)Cn1ccn(-c2cccc(Cl)c2)c(=O)c1=O
    -1.1	-1.7

Next part
smiles	BasE inh	LANA-nucl inh
CC1=C/C(=N/NC(=O)c2nc3ccccn3c2C)CC(C)(C)C1	2.5	·
c1ccc2c(c1)CC(CN1CCNCC1)O2 (configuration not stated)	-0.9	0.32
c1ccc2c(c1)OCC(CNc1ncnc3nc[nH]c13)O2 (configuration not stated)	2.8	0.99
O=C1CSC(N=Nc2c(O)[nH]c3ccccc23)=N1	0.0	-0.38
Cc1onc(-c2ccccc2Cl)c1C(=O)OCC(=O)c1ccccc1	16	-0.37
CCN(c1ccc(OC)cc1)S(=O)(=O)c1ccc(-c2cc(C(F)(F)F)no2)s1	2.6	·
N#Cc1ccccc1NC(=O)CSc1ncnc2ccccc12	1.4	·
Cc1ccc(C)c(-c2nnc(NC(=O)C3CC3)o2)c1	-1.1	-0.28
CCc1ccc(NC(=O)c2cc(C3CC3)on2)cc1	-0.6	-1.2
NC(=O)COC(=O)c1cc(-c2cccs2)nc2ccccc12	-0.2	·

Retrieved one by one from the list above, 2 records:
smiles	BasE inh	LANA-nucl inh
c1ccc2c(c1)OCC(CNc1ncnc3nc[nH]c13)O2 (configuration not stated)	2.8	0.99
CCc1ccc(NC(=O)c2cc(C3CC3)on2)cc1	-0.6	-1.2

(cont.)
smiles	BasE inh	LANA-nucl inh
COC(=O)c1ccc(OCC(=O)/C(C#N)=C(\C)N)cc1	-1.6	·
O=C(O)c1cc2ccccc2[nH]c1=O	-2.2	-0.32
CN(C)c1nc(Cl)nc(NCCCC(=O)O)n1	-2.5	0.049
Oc1ccc(CNc2ccccc2O)cc1	7.5	0.71
NC(=O)NOCc1ccccc1	0.5	·
CCOc1ccc(OCCNC(=S)NC)cc1	0.9	·
CN1C(=O)c2cccc3c(S(=O)(=O)N(C)C)ccc1c23	1.1	-0.65
Cc1nnc(SCC(=O)c2cc(C)n(CCC(C)C)c2C)n(N)c1=O	0.9	·
CCN(CC)Cc1cc(C(=O)O)co1	-4.3	1.9
O=C(CC1SC(=Nc2ccccc2)N(CCCCO)C1=O)NCc1ccccc1 (configuration not stated)	-1.2	-0.71
C=CCn1cnc2sc(-c3ccccc3)cc2c1=O	·	0.78
C=CCN(CC=C)S(=O)(=O)c1ccc(N)cc1	0.4	0.39
CCn1nnc2c(Nc3ccc4c(c3)OCO4)ncnc21	1.3	0.45
Nc1nc(SCc2cc(=O)oc3ccc4ccccc4c23)n[nH]1	-0.1	·
COc1cc(N)c(Cl)cc1C(=O)NC1CCN(Cc2ccccc2)CC1	-2.5&0.6	-0.1&-0.11
c1ccc2c3nnc4n(c-3nc2c1)CCCS4	-1.4	1.5
CC1(C)CC(CCC(=O)NC(=S)Nc2ccccc2Cl)C(=O)O1 (configuration not stated)	0.9	·
CC(C)(CN1CCCCCC1)NS(=O)(=O)c1ccc(Cl)cc1	2.0	·
O=c1cnc2ccccc2n1Cc1ccc(Br)cc1	2.8	·
CS(=O)(=O)CCC1NC(=O)N(CC(=O)c2ccccc2)C1=O (configuration not stated)	1.6	·
c1ccc(-c2cc(NCc3ccco3)n3c(n2)nc2ccccc23)cc1	-3.2	-0.6
Cn1c(N)c(C(=O)NC2CCCCC2)c2nc3ccccc3nc21	4.1	-0.29
Cc1ccc(Cn2ncc3ccccc32)cc1	-3.2	2.5
CC(C)CCN1CCC(CNS(=O)(=O)c2csc(C(N)=O)c2)CC1	-1.5	·
CC1CCCC(NC(=S)NC(=O)C2CC2)C1C (configuration not stated)	1.0	·
COc1ccc(C(O)P(=O)(OC2CCCCC2)c2ccc(N(C)C)cc2)cc1OC (configuration not stated)	3.7	-0.77
Cc1cc(S(=O)(=O)N2CCCC2)ccc1OCC(N)=O	1.7	0.5
CC(C)NC(=O)C1CCN(Cc2ccccc2Cl)CC1	2.2	0.31
CC1CCc2sc(C(=O)O)cc2C1 (configuration not stated)	-1.0	-1.7
Cc1ccc(C(=O)NCC(=O)O)cc1S(=O)(=O)N1CCCCC1	1.3	·
CC[n+]1ccc(C)c2cc(C(F)(F)F)ccc21	1.7	·
NC(=O)Cn1ccn(Cc2ccc(Cl)cc2)c(=O)c1=O	0.1	0.85
CC(C)(C)C(=O)NCCc1cn2ccccc2n1	0.6	1.6
CC1SCC(=O)N(c2ccc(Br)cc2)C1=O (configuration not stated)	·	-0.31
COc1cc(OC)cc(C(=O)OCC(=O)N2CCC(C(N)=O)CC2)c1	-0.2	·
CCn1nnc2cc(C(=O)Nc3cccc(Cl)c3F)ccc21	-5.3	·
NCCc1nc(-c2ccccc2)cs1	-3.4	-0.23
Cn1ccsc1=NC(=O)c1cccnc1	0.6	·
S=C(c1cn(Cc2ccc(Cl)cc2)c2ccccc12)N1CCCC1	-2.8	·
CC1=C/C(=N\S(=O)(=O)c2ccccc2)C=CC1=O	1.3	0.44
Fc1ccc(-c2cn3cc(I)ccc3n2)cc1	·	-1.1
NC(=O)N/N=C/c1ccc(-c2cccc(C(F)(F)F)c2)o1	0.8	-0.014
Cc1oc(C(C)(C)C)c(CN2CCCC2)c1C(=O)O	0.3	0.2
Cc1ccc2c(CC(=O)N3C(=O)c4cccc(N)c4C3=O)coc2c1	10	·
CC(=O)NC1C(=O)N(CCOc2ccccc2)c2ccccc21 (configuration not stated)	-0.7	0.13
COc1cc2c(c(OC)c1OC)C(=O)/C(=C/N(C)C)C2	0.9	-0.48
CCOC(=O)C1CSC(CC(=O)Nc2ccc(OCC)cc2)C(=O)N1 (configuration not stated)	0.3	-0.32
CN(C)N=Nc1cccc(/C=C/C(=O)O)c1	1.0	-0.25
O=c1c2cc(NC(=S)NCc3ccc4c(c3)OCO4)ccc2nc2n1CCCCC2	-1.6	-0.86
COc1ccc(N(C(C)C(=O)NC2CC2)S(=O)(=O)c2cccc(C)c2)cc1 (configuration not stated)	-0.9	·

Reprinted from the part before: 4 compounds, then new ones.
smiles	BasE inh	LANA-nucl inh
CCOC(=O)C1CSC(CC(=O)Nc2ccc(OCC)cc2)C(=O)N1 (configuration not stated)	0.3	-0.32
CN(C)N=Nc1cccc(/C=C/C(=O)O)c1	1.0	-0.25
O=c1c2cc(NC(=S)NCc3ccc4c(c3)OCO4)ccc2nc2n1CCCCC2	-1.6	-0.86
COc1ccc(N(C(C)C(=O)NC2CC2)S(=O)(=O)c2cccc(C)c2)cc1 (configuration not stated)	-0.9	·
O=C1CC(=O)N(Cc2cccs2)C(=O)N1	-0.7	0.086
COc1ccccc1C(=O)Nc1ccc(O)cc1	-1.4	·
COC(=O)C1(C#N)C(C)(C)C1(C#N)C(=O)OC (configuration not stated)	-2.0	0.3
O=C1NC2=C(C(=O)OC2)C(c2cccs2)N1 (configuration not stated)	-1.5	0.82
O=C(NCC1(c2ccccc2)CCOCC1)c1ccc(Br)cc1	2.9	·
Nc1nonc1-n1nnc(C(=O)N=Nc2c(O)[nH]c3ccc(Br)cc23)c1-c1ccccc1	0.7	0.71

Single values from the entries so far:
O=C(NCC1(c2ccccc2)CCOCC1)c1ccc(Br)cc1 in BasE inh: 2.9
COC(=O)C1(C#N)C(C)(C)C1(C#N)C(=O)OC (configuration not stated) in LANA-nucl inh: 0.3
COc1ccccc1C(=O)Nc1ccc(O)cc1 in BasE inh: -1.4
Nc1nonc1-n1nnc(C(=O)N=Nc2c(O)[nH]c3ccc(Br)cc23)c1-c1ccccc1 in BasE inh: 0.7
O=C1NC2=C(C(=O)OC2)C(c2cccs2)N1 (configuration not stated) in LANA-nucl inh: 0.82
O=C1CC(=O)N(Cc2cccs2)C(=O)N1 in LANA-nucl inh: 0.086

Assay outcomes (PubChem)
